NPYLR7 ag: mosquito NPYLR7 agonism | HEK293T NPYLR7/Galpha15, GCaMP6s calcium fluorescence | activation, % at 10 µM | actives 0.15% (n = 270,000) | AID 1259423; in the data active = activation above about 40%;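 note: 0% = vehicle and 100% = reference agonist at the receptor; some compounds past the cut are filed as inactive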
NPYLR7 ag max-min: second read-out of NPYLR7 ag, no call of its own (marks repeat the call); activation, %; measured here: Max-Min RFU normalised activation; some inactives read as strong as hits;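 span of the calcium signal over five minutes; 0% = vehicle and 100% = native peptide agonist; compound fluorescence can raise it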
Numbers without * were called inactive. A portion of the library, so the mix of outcomes need not match the whole.

SMILES	NPYLR7 ag	NPYLR7 ag max-min
CCOC(=O)C1CCN(C(=O)CN2CCCC2c2ccccc2C)CC1 (centres undefined)	-2.6	-7.5
CC1(Cc2ccc(C(F)(F)F)nc2)C(=O)Nc2ccc(-c3cccc(C(F)(F)F)c3)cc21 (centres undefined)	1.0	4.6
CN(CCCNC(=O)CCC(=O)N1CCc2c([nH]c3ccccc23)C1)c1ccccc1	-13.5	-17.1
CN(CC(=O)Nc1cccc(C(=O)NC2CC2)c1)Cc1cccs1	0.8	-2.0
O=C(c1ccc(-c2ccoc2)nc1)N1CCCN(C2CCCCC2)CC1	-5.7	-9.2
Cn1c(=O)c2c(nc(CN3CCN(c4cccc(Cl)c4)CC3)n2CCCO)n(C)c1=O	0.0	22.3
Cc1cccc(C(=O)Nc2cc(C(=O)N3CCCCCC3)cn(C)c2=O)c1	-14.7	-24.6
CC(=O)N1CCc2c(nc(C)nc2NCc2ccc3sccc3c2)C1	8.2	3.7
C=CCNC(=O)C1CCN(S(C)(=O)=O)CC1	8.0	7.7
CC1(O)CN(C(=O)c2ccccc2)C(=S)N1c1ccc(Cl)cc1 (centres undefined)	3.9	8.7
O=[N+]([O-])c1cc(S(=O)(=O)N2CCCC2)ccc1Cl	9.1	7.6
CC(C)CCNC(=O)Cn1nnc(CCN2C(=O)c3ccccc3C2=O)n1	10.1	6.4
CSc1ccc(Cn2c(C)c(C(=O)NCc3ccc(C(F)(F)F)cc3)sc2=O)cc1	1.9	-0.1
COc1ccc(S(=O)(=O)N(CCN2CCOCC2)Cc2nccn2Cc2ccccc2Cl)cc1	16.2	18.0
CCOc1ccc(CN2CCN(Cc3ccc4nonc4c3)CC2CCO)cc1 (centres undefined)	7.0	5.6
CCCn1c(=O)c2c(nc3n(-c4cc(C)ccc4C)c(C)c(C)n23)n(C)c1=O	8.5	7.8
C=CCN(CC(=O)N(CCc1ccc(OC)c(OC)c1)Cc1sccc1C)C(=O)Nc1cccc(Br)c1	-4.8	1.0
COCCCN(CC(=O)N(Cc1ccccc1)Cc1cccn1Cc1cccc(OC)c1)C(=O)C1CC1	-7.0	-5.5
CC(C)Nc1ccc(C(=O)NCCc2ccc(F)cc2)cn1	-18.4	-23.0
Cc1cc(C)c(NC(=O)CNC(=O)c2cc(-c3cccnc3)nc3ccccc23)c(C)c1	6.8	12.7
O=C(NCCN1CCCC1)c1cc(-c2ccccc2F)nc2cc(-c3ccccc3)nn12	21.9	32.5
CCc1cc(-c2ccc(S(C)(=O)=O)cc2)ccc1NC(C)=O	1.4	3.4
CCc1nc2ccc(C(=O)N3CCCCC3)cn2c1N(C)C(=O)Cc1ccccc1	4.6	25.5
CCOc1cccc2cc(-c3csc(NC(=O)CSc4ccccc4)n3)oc12	20.8	16.0
O=C1OC(/C=C\c2cccc([N+](=O)[O-])c2)=NC/1=C/c1ccccc1[N+](=O)[O-]	-1.7	-6.4

The closing 3 compounds of the section above lead into the next.
SMILES	NPYLR7 ag	NPYLR7 ag max-min
CCc1nc2ccc(C(=O)N3CCCCC3)cn2c1N(C)C(=O)Cc1ccccc1	4.6	25.5
CCOc1cccc2cc(-c3csc(NC(=O)CSc4ccccc4)n3)oc12	20.8	16.0
O=C1OC(/C=C\c2cccc([N+](=O)[O-])c2)=NC/1=C/c1ccccc1[N+](=O)[O-]	-1.7	-6.4
N#Cc1ccc(C(=O)N(Cc2ccncc2)c2nc3ccc(Cl)cc3s2)cc1	-4.9	-10.8
O=C(O)COc1cccc(/C=C2/SC(=Nc3ccccc3)NC2=O)c1	-8.5	-9.2
NC(=O)CCN(C(=O)C1=CC=CN2CCS(=O)(=O)N=C12)c1ccccc1	-0.7	-0.9
COc1ccccc1C(=O)N(CC(=O)Nc1cc(-c2ccccc2)nn1-c1ccc(F)cc1)Cc1ccccc1	-3.4	-4.1
CC(C)(C)c1nc(C(C)(C)NC(=O)CC2CC3CCC2C3)no1 (centres undefined)	3.2	1.6
NC(=O)c1ccc(Cl)c(NC(=O)c2ccnc(Oc3ccccc3)c2)c1	3.5	2.2
CCc1c(C(=O)O)c(C)nn1-c1ccc(F)cc1	10.9	17.9
COc1ccc(CCN(C)C(=O)C(C)Oc2ccccc2)cc1OC (centres undefined)	-5.0	-9.4
COCCCNC(=O)c1ccccc1N1CCC(NC(=O)c2ccc(Cl)c(Cl)c2)CC1	0.3	6.9
CC(=O)c1[nH]c(C)c(C(=O)N2[C@@H]3CC[C@H]2CN(C)C(=O)C3)c1C	-9.1	-9.7
CCc1ccc(C(=O)c2c(N)c(C(=O)Nc3ccc(C)cc3)c3ccccn23)cc1	-4.4	-8.4
Nc1nnc(SCc2cc(F)cc(F)c2)s1	-14.7	-15.2
Cc1cc(S(=O)(=O)Nc2ccc3c(c2)CN(C(=O)C2CC2)CC3)ccc1F	15.6	9.5
C=CCCOC(=O)N1CC(=O)N(Cc2ccccc2)CC(O)C1 (centres undefined)	8.9	10.1
C#CCN1C(=O)[C@]2(C)[C@H](c3ccccc31)[C@@H](C(N)=O)CN2C(=O)N(C)C	-1.1	1.8
CCCCNC(=O)C(C#N)=Cc1ccc(F)c(Br)c1	0.7	-1.3
c1ccc2[nH]c(CSc3nc4ncccc4[nH]3)nc2c1	10.7	10.1
Cc1cc(N2CCC3(CC2)CNC(=O)C3)nc2cc(F)ccc12	23.0	10.5
CCN(CC)C(=O)CN(C)C(=O)C(O)(c1ccccc1)C(C)C (centres undefined)	1.8	0.0
O=[N+]([O-])/C=C/c1cccn1-c1ccc(F)cc1	-0.6	18.3
CCS(=O)(=O)Oc1ccc(Cl)cc1CN(CCOC)C(=O)Nc1ccccc1OC	3.1	8.9
CC(C)CC(=O)C(=O)N(C)CC1CCCN(CCc2ccccc2F)C1 (centres undefined)	5.3	3.1
CN(Cc1c(F)cccc1Cl)C(=O)/C=C/c1ccc(N2CCCC2=O)cc1	-2.1	-2.5
N#CCCS(=O)(=O)c1ccc2[nH]c(=O)c(=O)[nH]c2c1	15.1	4.9
CCN(CC(=O)NC(=O)NC)C1CN(C(=O)OC(C)(C)C)C1	5.2	-7.8

Structures shown so far that have a cyano group (three):
SMILES	NPYLR7 ag	NPYLR7 ag max-min
N#Cc1ccc(C(=O)N(Cc2ccncc2)c2nc3ccc(Cl)cc3s2)cc1	-4.9	-10.8
CCCCNC(=O)C(C#N)=Cc1ccc(F)c(Br)c1	0.7	-1.3
N#CCCS(=O)(=O)c1ccc2[nH]c(=O)c(=O)[nH]c2c1	15.1	4.9

Further structures follow.
SMILES	NPYLR7 ag	NPYLR7 ag max-min
CN(Cc1ccco1)C(=O)c1ccccc1N1CCC(NS(=O)(=O)c2ccc(Cl)cc2)CC1	1.3	2.3
N#CC1C(=N)OC2=C(C(=O)CCC2)C1c1c(F)cccc1Cl (centres undefined)	-1.3	-6.6
CCOC(=O)Cn1c(=NC(=O)c2ccc(S(=O)(=O)N(C)C)cc2)sc2cc(C)ccc21	3.5	-0.3
OCC1OC(Oc2ccc(Cl)cc2Cl)C(O)C(O)C1O (centres undefined)	-4.9	-4.6
N#Cc1cccc(CSCC(=O)NCc2ccco2)c1	4.5	-0.7
Cc1ccccc1CCNC(=O)C1CC2CCCC(C1)C2=O (centres undefined)	0.6	0.4
COc1ccc(/C=C2\C=C(c3ccccc3)N(c3cccc(O)c3)C2=O)cc1Br	0.0	4.4
O=C(NCc1cccs1)c1cc2nc(-c3ccc(F)cc3)cc(C(F)(F)F)n2n1	-7.7	-11.1
O=C(Cn1nnc2ccccc21)NCCSCc1ccc(Br)s1	0.6	6.8
CCc1nc2c(OCC(=O)c3ccc(Cl)cc3Cl)cccn2c1N(C)C(=O)c1cccs1	10.8	-3.2
CCOC(=O)CN1C(=O)CN(C(=O)c2cc3ccccc3s2)CCC(OC)c2ccccc21 (centres undefined)	4.2	6.6
COc1ccccc1CN(C)S(=O)(=O)c1ccc2c(c1)NC(=O)CC(=O)N2	-1.3	12.9
CS(=O)(=O)Oc1ccccc1CN(Cc1ccc(F)cc1)C(=O)c1ccccc1Cl	4.7	9.4
O=C(Nc1cccnc1Oc1ccccc1)NC1CCCC1	4.5	3.0
COC(=O)CCCS(=O)(=O)NC(=O)CSCC1CCCO1 (centres undefined)	9.0	7.4
O=C(Cn1cnc2ccccc2c1=O)Nc1ccc2c(c1)OCCCO2	-4.9	-6.4
CCCCCCCCC(=O)N1CCN(C(=O)CCN2CCc3sccc3C2c2cccc(F)c2)CC1 (centres undefined)	7.3	-5.4
CC(C)N(Cc1ccc(OS(=O)(=O)c2cccc(C(F)(F)F)c2)cc1)C(=O)c1ccc(Cl)cc1	-2.6	9.5
CCOc1ccc(-n2nnc3c(N4CCN(S(=O)(=O)c5ccccc5)CC4)ncnc32)cc1	-7.9	-17.8
CC1Cc2cc(-c3cc(COC(=O)c4ccc(S(=O)(=O)N(C)C)cc4)no3)ccc2O1 (centres undefined)	0.2	-2.2
CC(C)Cc1cc(CNC(=O)c2cn3c(n2)CNCC3)no1	4.9	2.0
CCCN(Cc1ccc(C(C)(C)O)o1)Cc1sccc1C	13.1	15.3
CCN(CC)CCSc1nc(C)cc(C)n1	-5.3	-3.4
CC(=O)N1CC(C(=O)Nc2ccnn2C2CCCCC2)Oc2ccccc21 (centres undefined)	-1.8	-3.9
COc1ccc(NC(=O)NCCNc2cc(-n3ccnc3C)ncn2)c(OC)c1	1.3	0.6

Record cards, from the list above. Values in the order: NPYLR7 ag, NPYLR7 ag max-min
CCN(CC)CCSc1nc(C)cc(C)n1 is entered as -5.3, -3.4
CS(=O)(=O)Oc1ccccc1CN(Cc1ccc(F)cc1)C(=O)c1ccccc1Cl is entered as 4.7, 9.4
CCCN(Cc1ccc(C(C)(C)O)o1)Cc1sccc1C is entered as 13.1, 15.3
O=C(Cn1cnc2ccccc2c1=O)Nc1ccc2c(c1)OCCCO2 is entered as -4.9, -6.4

(further entries)
SMILES	NPYLR7 ag	NPYLR7 ag max-min
COCCN(Cc1ccc(OC)c(OC)c1)CC(O)COC(C)(C)C (centres undefined)	8.2	18.6
N#Cc1cccc(C(=O)N2CCN(c3ncccc3C(=O)NCc3cccs3)CC2)c1	-12.6	-10.6
Cc1cc(NCc2cccc(C#N)c2)ccc1C(=O)N(C)C	9.2	4.5
O=S(=O)(NCc1ccccc1)N1CCN(C/C=C/c2ccccc2)CC1	-2.0	-6.2
S=c1[nH]c2ccccc2n1CCOc1ccc(Cl)cc1	-2.5	-8.4
CNc1cnc(-c2cccc(CO)c2)cn1	4.4	2.3
O=c1c2cc(Br)ccc2nc(-c2ccc3ccccc3c2)n1Cc1ccccc1	-2.0	-1.6
O=C1CC(NC2CC2)C(=O)N1c1ccc(F)cc1 (centres undefined)	0.6	-2.2
Cc1nn(CC(=O)Nc2ccc(Cl)cc2Cl)c(=O)c2ccccc12	14.6	11.0
COC(=O)C1=C(C)NC(C)=C(C(=O)OC)C1c1ccco1	16.1	13.1
O=C(c1c(F)c(F)cc(F)c1F)N1CCC(Cc2ccc(-n3cccc3)cc2)CC1	3.5	3.7
O=C(CC(c1cccc(F)c1)c1cn(Cc2ccccc2)c2ccc([N+](=O)[O-])cc12)NCc1ccc(F)cc1 (centres undefined)	-3.2	5.8
CCOc1ncccc1CN1CCCC(C(=O)Nc2cccc(SC)c2)C1 (centres undefined)	-13.5	-18.8
COc1ccc(C2(C)NC(=O)N(NC(=O)CN(C)c3cnn(C)c3)C2=O)cc1 (centres undefined)	8.6	4.0
Cc1cc(CNC(=O)C2(N(C)CCc3ccccc3)Cc3ccccc3C2)on1	-1.1	-4.9
O=C(NCc1ccco1)c1ccc(-c2ccccc2)cc1	15.9	17.3
Cc1ccc(CN(C(=O)c2cnc(-c3cccnc3)nc2)C2CC2)s1	-5.9	-9.1
O=S(=O)(N1CCCCCC1)N1CCC2(CCCNC2)C1 (centres undefined)	-1.1	23.6
COc1cccc(-c2ccc(OC)c(OC)c2OC)n1	6.4	3.5
O=C1N(Cc2ccccc2)C(=O)C2(CCN(C3CCSC3)CC2)N1CCc1ccccc1 (centres undefined)	-0.5	-3.4
COCCN(Cc1nccs1)C(=O)c1cn(-c2ccccc2)nn1	-5.8	-6.9
CC(C)(C)n1ncc2c(=O)n(NC(=O)Cc3ccc(F)cc3)cnc21	8.0	1.7
O=C(NCCNC1CCC2(CCNCC2)CC1)c1ccncc1	0.4	0.4
Cc1cc(C(=O)NCc2cccc(N3CCOC3=O)c2)ccc1F	8.3	5.9
CCOC(=O)C1CCN(C(c2ccccc2)c2c(O)cc(C)n(Cc3ccco3)c2=O)CC1 (centres undefined)	6.6	1.3

The final 2 entries of the part above lead into the next.
SMILES	NPYLR7 ag	NPYLR7 ag max-min
Cc1cc(C(=O)NCc2cccc(N3CCOC3=O)c2)ccc1F	8.3	5.9
CCOC(=O)C1CCN(C(c2ccccc2)c2c(O)cc(C)n(Cc3ccco3)c2=O)CC1 (centres undefined)	6.6	1.3
O=C(c1n[nH]c(=O)c2ccccc12)N1CC=C(c2ccccc2)CC1	6.6	3.1
O=C(c1csc2nc(-c3ccccc3)cn12)N1CCCCC1CCn1cccn1 (centres undefined)	17.4	2.7
O=C(c1cc2ccccc2oc1=O)N1CCOC(CC2CCCCC2)C1 (centres undefined)	17.1	7.2
CCCCN1CCN(C(=O)c2cn(C)cc3c(=O)n(-c4ccccc4)nc2-3)CC1	-3.0	-6.4
CCc1nncn1CCNC(=O)N1CCCC(C)CC1 (centres undefined)	0.0	-0.6
COc1ccc(CC2CN(Cc3cccc(C(C)=O)c3)CCO2)cc1 (centres undefined)	-0.1	-4.6
Cc1cc(-c2csc(NC3CC3)n2)c(C)n1C1CCS(=O)(=O)C1 (centres undefined)	0.4	2.2
C=CCNC(=O)NC(=O)COC(=O)C=CC=CC	-2.8	-7.0
COc1cc(CC(=O)N2C[C@H]3CC=C(C)C[C@H]3C2)cc(OC)c1OC	-2.6	-7.4
Cc1c(C(=O)N2CCC2(C)C(=O)O)oc2ccccc12 (centres undefined)	0.0	-2.8
